Screening results from PubChem.
CHT inh: inhibitors of human choline transporter CHT | AID 488975, 2010 | B-score at 10 µM | CHT-expressing cells, membrane potential dye, choline response; stronger effect = lower value | 0.86% of 310,000 active;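 active means B-score over 3 SD under the library average, and starting fluorescence ratio not unusually high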;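 further: choline stimulus applied at its EC90 after an EC20 pre-addition; B-score computed on integrated fluorescence ratio after choline addition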
Target sequence (Q9GZV3 whole entry, looked up): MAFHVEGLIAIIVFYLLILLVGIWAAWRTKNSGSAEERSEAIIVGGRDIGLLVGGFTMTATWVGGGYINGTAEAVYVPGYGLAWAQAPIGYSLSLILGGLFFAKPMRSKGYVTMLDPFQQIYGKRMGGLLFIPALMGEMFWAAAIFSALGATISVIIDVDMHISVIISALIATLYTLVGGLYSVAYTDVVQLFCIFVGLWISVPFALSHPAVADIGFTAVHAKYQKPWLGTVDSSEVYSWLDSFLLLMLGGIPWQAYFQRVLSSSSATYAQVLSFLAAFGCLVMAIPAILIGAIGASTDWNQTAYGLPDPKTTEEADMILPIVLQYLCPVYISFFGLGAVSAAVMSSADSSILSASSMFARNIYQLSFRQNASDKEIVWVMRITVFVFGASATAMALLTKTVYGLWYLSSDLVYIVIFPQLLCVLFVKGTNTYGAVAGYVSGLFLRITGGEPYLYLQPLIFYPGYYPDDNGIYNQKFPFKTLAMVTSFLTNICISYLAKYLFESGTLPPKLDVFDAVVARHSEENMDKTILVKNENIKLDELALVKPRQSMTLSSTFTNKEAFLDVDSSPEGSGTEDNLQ
Calls only; i = inactive.

SMILES	CHT inh
Cc1ccc(S(=O)(=O)c2c(COC(=O)c3cccc(Cl)c3)c(-c3ccccc3)nn2C)cc1	i
COc1ccc(N(CC(=O)NCc2ccccc2OC)S(=O)(=O)c2ccccc2[N+](=O)[O-])c(OC)c1	i
S=C(Nc1ccccc1Cl)N(Cc1cccnc1)Cc1ccco1	i
COc1ccccc1/C=C/C(=O)NC(=S)NC(C)C	i
CC(C)(C)[C@@H]1C=C(C(=O)N2CCN(Cc3ccccc3)CC2)O[C@H](OCc2ccc(CO)cc2)C1	i
O=S(=O)(NCc1ccccn1)c1ccc2c(c1)OCCO2	i
COc1cc(NC(=O)c2ccc(Cl)cc2Cl)ccc1NC(=O)c1cccs1	i
CC(C)Sc1nc2ccccc2n2cnnc12	i
COc1ccc(NC(=O)c2oc3ccccc3c2NC(=O)C2CC2)cc1OC	i
CC1(C)CC(=O)C2=C(C1)OC(c1cccs1)C(C#N)=C2N (centres undefined)	i
CCOc1nnc(C)c2c(C)n(-c3ccc(Cl)cc3)nc12	i
COc1cccc2[nH]c3c(N4CCC(C(N)=O)CC4)ncnc3c12	i
CCOC(=O)c1ccc(-n2cc(C(=O)c3cccnc3)nn2)cc1	i
COc1cc(O)cc2occ(-c3ccc(O)cc3)c(=O)c12	i
CCN=C1NN=C(c2ccc(C)cc2)CS1	i
COc1ccc(OC)c(/C=N/NC(=O)C(=O)N2CCCC2)c1	i
COc1ccc(C2c3ccc(O)cc3Oc3ncn4nc(-c5ccncc5)nc4c32)cc1OC (centres undefined)	i
CCNc1nc(NCC)nc(NC(N)=S)n1	i
Cc1nnc(SCc2nnc(-c3ccc(Cl)cc3)o2)n1-c1ccccc1	i
O=C(NCc1ccccn1)c1ccc(Cl)cc1Cl	i
Cc1ccccc1N(Cc1cc(=O)[nH]c2ccccc12)C(=O)CCl	i
COc1ccc(OCC(=O)N(C)Cc2ccccc2)cc1	i
CCOc1ccc(OCCC(=O)N2CCN(S(=O)(=O)c3cccc(F)c3)CC2)cc1	i
O=C(Nc1ccccc1)c1ccc(-c2ccc([N+](=O)[O-])cc2)o1	i
CCCCc1ccc(NC(=O)NCc2ccccn2)cc1	i
O=C(O)/C=C/C(=O)Nc1nccs1	i
CC(C)CNS(=O)(=O)c1ccc(CCC(=O)NCc2ccncc2)cc1	i
CC(=O)c1c(C)[nH]c(C(=O)N(C)CC(=O)Nc2ccc(Cl)c(C(F)(F)F)c2)c1C	i
CCOc1cc(C(=O)Nc2ccc(N3CCOCC3)cc2)cc(Br)c1OC	i
CC(C)(C)c1ccc(OCC(O)CN(CCO)CC(O)Cn2ccc3ccccc32)cc1 (centres undefined)	i
Cc1cc(N/N=C\c2ccc(Br)cc2)nc(-n2nc(C)cc2C)n1	i
CC1CCN(S(=O)(=O)c2ccc(C(=O)Nc3nnc(C4CC4)o3)cc2)CC1	i
O=C(Nc1ccccc1)Nc1nccs1	i
CC(C)N=C1SC(CC(=O)Nc2ccccc2)C(=O)N1C(C)C (centres undefined)	i
O=C(O)CCCCCNS(=O)(=O)c1ccc2c(c1)OCCO2	i
COc1cccc(NC(=O)N(Cc2ccco2)C(C)c2cccs2)c1 (centres undefined)	i
CCOC(=O)N1CCN(C2CC(=O)N(c3ccccc3)C2=O)CC1 (centres undefined)	i
COc1ccccc1OCC(=O)Nc1ccccc1C(=O)N1CCCCC1	i
CSCCC(NC(N)=O)C(=O)NCc1ccc(Cl)cc1 (centres undefined)	i
CCN(c1ccc(OC)cc1)S(=O)(=O)c1ccc2c(c1)CCN2C(=O)CCC(=O)O	i
COc1ccccc1-c1cc(C(=O)NCCCn2ccnc2)no1	i
Cc1ccccc1Oc1nc(-c2ccccn2)nc2ccccc12	i
Cc1ccc(C(=O)CSc2ccc(-c3ccccc3)nn2)cc1	i
COC(=O)c1cc(NC(=O)c2cc3ccccc3o2)cc(C(=O)OC)c1	i
N/C(Cc1ccc([N+](=O)[O-])cc1)=N\OC(=O)c1ccccc1Br	i
O=C1Nc2ccccc2C1=Nc1cccc([N+](=O)[O-])c1	i
O=C(CCc1ccccc1)N1CCN(c2ccc(Cl)cc2)CC1	i
O=C(C1=C[C@@H](c2ccc(C(F)(F)F)cc2)C[C@@H](OCCCCO)O1)N1CCCCCCC1	i
Cc1cc(C)c(N(CC(=O)NC(C)(C)C)C(=O)CNC(=O)c2cccs2)c(C)c1	i
C=C(C)Cn1c(=O)c2c(nc3n2CC(C)CN3Cc2ccccc2)n(C)c1=O (centres undefined)	i
Cc1cc(NC(=O)CCC(=O)N(CC(=O)NC2CCCC2)Cc2cccs2)no1	i
c1ccc(-c2ccccc2OCCN2CCCC2)cc1	i
CCOc1cc2[nH]c(=O)n(Cc3ccc(C(=O)NCCOC)cc3)c(=O)c2cc1OCC	i
COc1cccc(CC2(CO)CCCN(Cc3ccc4c(c3)OCCO4)C2)c1 (centres undefined)	i
CCOC(=O)CSc1ncnc2c1c(-c1ccccc1)cn2-c1ccc(OC)cc1	i
O=C(COc1ccc(S(=O)(=O)N2CCCCC2)cc1Cl)N1CCCC1	i
CC(=O)OCCn1c(Br)nc2c1c(=O)[nH]c(=O)n2C	i
CSc1n[nH]c(=S)n1N	i
CC(=O)NC(C(=O)OCC(=O)N(c1ccccc1)c1ccccc1)C(C)C (centres undefined)	i
CCOc1ccc(N=C2NC(=O)C(CC(=O)Nc3ccccc3)S2)cc1 (centres undefined)	i

Next part.
SMILES	CHT inh
COc1cc(NC(=O)C2CCCCC2)c(OC)cc1NC(=O)CCC(=O)NCc1ccco1	i
S=c1nc(SCc2ccccc2)[nH]c2ccccc12	i
Cc1ccc(NC(=O)Cc2nc(CCl)cs2)cc1	i
Cc1n[nH]c(C)c1S(=O)(=O)N1CCCC(C(=O)NCc2ccc(F)cc2)C1 (centres undefined)	i
CC(C)CN(C(=O)CN1CCOCC1)c1c(N)n(CC(C)C)c(=O)[nH]c1=O	i
CCN1CCN(c2nc3ccccc3nc2C(C#N)S(=O)(=O)c2ccc(C)cc2)CC1 (centres undefined)	i
NS(=O)(=O)c1cccc(NC(=O)c2cc(=O)c3ccccc3o2)c1	i
O=C(COC(=O)c1nc(Cl)ccc1Cl)Nc1ccccc1OC(F)F	i
O=[N+]([O-])c1ccc(N(CC2CO2)S(=O)(=O)c2ccccc2)cc1 (centres undefined)	i
COc1cccc(-c2nnc(-c3ccccc3NC(=O)c3ccc(C(C)(C)C)cc3)o2)c1	i
Nc1nnnn1CC(=O)N/N=C/c1ccc(-c2cccc(Cl)c2)o1	i
Cc1ccc(S(=O)(=O)N2CCN(CCO)CC2)cc1-c1nnc2c3ccccc3c(C)nn12	i
CCOc1ccccc1C(=O)N1CCCCC1C (centres undefined)	i
O=C(NN1CCOCC1)c1cccc(COc2cccc(Br)c2)c1	i
COCCOC(=O)C1=C(C)NC(=S)NC1/C=C/c1ccccc1 (centres undefined)	i
CC1CCN(C(=O)C2CCN(C(=O)c3cc4sccc4n3Cc3ccc(F)cc3)CC2)CC1	i
COc1cc2c(cc1OC)C(C(=O)O)C(c1cc(Br)c(O)c(OC)c1)N(C)C2=O (centres undefined)	i
CCc1c(C)[nH]n(CCC#N)c1=O	i
Cc1nc2ccc(NC(=O)Cc3cccc(F)c3)cc2s1	i
Cc1cc(C)cc(NC(=O)c2cc(Cl)sc2Cl)c1	i
NC(=O)CC(NC(=O)Cc1ccc(Cl)cc1)c1ccc(NCCCN2CCCC2=O)c([N+](=O)[O-])c1 (centres undefined)	i
N#Cc1ccccc1NC(=O)CSc1nnc(-c2ccncc2)o1	i
Cc1cc(C)c2c3c(sc2n1)C(=O)N(c1ccccc1C)CC(=O)N3	i
Cc1ccc(S(=O)(=O)c2c(N)n(/N=C/c3ccco3)c3nc4ccccc4nc23)cc1C	i
Cc1ccc(/C=C/C2=NN(Cc3ccc(Cl)c(Cl)c3)C(=O)CC2)cc1	i
O=C(COc1ccc(Cl)cc1)Nc1nc(-c2ccncc2)cs1	i
O=C(O)COc1ccccc1/C=C1\SC(=S)N(c2cccnc2)C1=O	i
CCn1c2ccccc2c2nnc(SCC(=O)OCN3C(=O)c4ccccc4C3=O)nc21	i
COc1cc2c(cc1OC)C(C(=O)N1CCOCC1)C(c1cccs1)N(C)C2=O (centres undefined)	i
Cc1cccc(OCC(=O)NNC(=O)c2ccc([N+](=O)[O-])cc2)c1	i
COC(=O)c1cc(OC)c(OC)cc1NC(=S)N1CCN(c2ccccn2)CC1	i
CCCN1C(=O)c2cc(C(=O)Nc3ccc(OC)c(OC)c3)ccc2C1Nc1ccc(OC)c(OC)c1 (centres undefined)	i
Cc1cc(OCC(=O)N2CCC(C(=O)O)CC2)c2c(C)c(C)c(=O)oc2c1	i
COc1ccc(/C(C)=C(\C#N)C(=O)OC(C)C)cc1OC	i
O=C1CN(C(=O)NCC(=O)N[C@H](C(=O)O)c2ccccc2)c2ccccc2N1	i
CCC(=O)NC(C)C(c1cccs1)N1CCOCC1 (centres undefined)	i
COc1ccc(/C=C2/SC(=O)N(CCC(=O)Nc3ccc(S(=O)(=O)Nc4nccs4)cc3)C2=O)cc1	i
CCOc1ccccc1NC(=O)NNC(=O)CCc1ccc(OC)cc1	i
Cc1cc(-c2cccs2)nc(-n2cccc2)n1	i
C/C(Cl)=C\COc1cc(C)nc2c(Br)cccc12	i

Another view of some results above:
NC(=O)CC(NC(=O)Cc1ccc(Cl)cc1)c1ccc(NCCCN2CCCC2=O)c([N+](=O)[O-])c1 (centres undefined)
  CHT inh = i
Cc1cc(C)c2c3c(sc2n1)C(=O)N(c1ccccc1C)CC(=O)N3
  CHT inh = i

The list goes on.
SMILES	CHT inh
CCOC(=O)C1(Cc2cccc(OC)c2)CCN(Cc2cccnc2)CC1	i
COc1ccc(-c2cc(C(=O)NCC3CCCO3)c3ccccc3n2)cc1 (centres undefined)	i
COc1ccc(-c2nnc(SCCC(=O)O)n2C)cc1OC	i
c1ccc(CNc2c3c(nc4ncnn24)CCC3)cc1	i
Cc1cc(-c2cccs2)c2c(N)c(C(=O)c3ccc4c(c3)OCO4)sc2n1	i
O=C(/C=C/c1ccccc1)NCCSCc1ccccc1Cl	i
CCc1ccc(C(=O)NNC(=O)C2CSC3(C)CCC(=O)N23)cc1 (centres undefined)	i
N#Cc1cnn(Cc2ccccc2)c1N	i
CCOC(=O)C1=NN(c2ccccc2C)C2=NC(C)=C(C(=O)OC)C(c3cccs3)N12 (centres undefined)	i
O=C(NC(=S)Nc1cccc(-c2ccc(CO)o2)c1)c1cccs1	i
CC1(C)CCC(=O)N2CC[C@H]3C[C@H](OC(=O)Nc4ccccc4)C[C@@H]1[C@H]32	i
CC(C)NS(=O)(=O)c1ccc(CCC(=O)NCc2ccco2)cc1	i
COc1ccc(-n2c3c(cc(C(=O)N4CCN(CCO)CC4)c2=O)C(=O)CC(C)(C)C3)cc1	i
COc1cccc(CN2CCC(Oc3ccc(C(=O)NCc4ccccn4)cc3)CC2)c1	i
CN(C)S(=O)(=O)Nc1cc(Cl)cc(Cl)c1	i
CC(=O)Nc1ccc(C(=O)N/N=C/c2ccc(F)cc2)cc1	i
Cc1sc2ncnc(N3CCC(C(=O)N(C)CC(=O)Nc4ccccc4Cl)CC3)c2c1C	i
COc1ccc2c(c1)OC/C(=C/c1cccs1)C2=O	i
CN(C/C=C/c1ccccc1)C1CCCCC1	i
NNC(=O)c1ccc(CSc2n[nH]c(=O)[nH]c2=O)cc1	i
O=C(NC(=O)c1ccc(Cl)c(Cl)c1)OC1CCS(=O)(=O)C1 (centres undefined)	i
C/C(=N\NC(=O)C(=O)N/N=C(\C)c1cccc(O)c1)c1cccc(O)c1	i
CC(NC(=O)c1ccc(Cl)cc1)C1CC2CCC1C2 (centres undefined)	i
Cc1ccc(NC(=O)COC(=O)c2ccc3c(c2)C(=O)N(CCc2ccccc2)C3=O)c(C)c1	i
CC(C)C(C)NC(=O)COc1ccc([N+](=O)[O-])cc1Cl (centres undefined)	i
COc1ccc(/C=C2\SC(=O)N=C2N)cc1	i
Cc1ccc(S(=O)(=O)NC(C(=O)N2CCOCCOCCOCCOCC2)c2ccccc2)cc1 (centres undefined)	i
CC(NCC(O)COCc1cccs1)C1CC2CCC1C2 (centres undefined)	i
CCOC(=O)CNC(=O)c1ccc2c(c1)OCCO2	i
CC(C)Oc1ccccc1-c1nc(SCC(=O)O)n[nH]1	i
CCc1ccccc1N(CC(=O)NCC1CCCO1)C(=O)CCC(=O)Nc1nccs1 (centres undefined)	i
O=C(N1CCCC1)C12CC3CC(CC(C3)C1)C2	i
Nc1cc(-c2ccc(Br)cc2)nc2cc(-c3ccccc3)nn12	i
CN(C)S(=O)(=O)n1cc(/C=C(\NC(=O)c2ccccc2)C(=O)NCCN2CCOCC2)c2ccccc21	i
CN1CCN(CC(=O)Nc2nc3c(s2)CCCC3)CC1	i

Of the compounds above, these contain a thiophene ring, fused or not:
SMILES	CHT inh
COc1cc(NC(=O)c2ccc(Cl)cc2Cl)ccc1NC(=O)c1cccs1	i
CC1(C)CC(=O)C2=C(C1)OC(c1cccs1)C(C#N)=C2N (centres undefined)	i
COc1cccc(NC(=O)N(Cc2ccco2)C(C)c2cccs2)c1 (centres undefined)	i
Cc1cc(C)c(N(CC(=O)NC(C)(C)C)C(=O)CNC(=O)c2cccs2)c(C)c1	i
Cc1cc(NC(=O)CCC(=O)N(CC(=O)NC2CCCC2)Cc2cccs2)no1	i
CC1CCN(C(=O)C2CCN(C(=O)c3cc4sccc4n3Cc3ccc(F)cc3)CC2)CC1	i
Cc1cc(C)cc(NC(=O)c2cc(Cl)sc2Cl)c1	i
Cc1cc(C)c2c3c(sc2n1)C(=O)N(c1ccccc1C)CC(=O)N3	i
COc1cc2c(cc1OC)C(C(=O)N1CCOCC1)C(c1cccs1)N(C)C2=O (centres undefined)	i
CCC(=O)NC(C)C(c1cccs1)N1CCOCC1 (centres undefined)	i
Cc1cc(-c2cccs2)nc(-n2cccc2)n1	i
Cc1cc(-c2cccs2)c2c(N)c(C(=O)c3ccc4c(c3)OCO4)sc2n1	i
CCOC(=O)C1=NN(c2ccccc2C)C2=NC(C)=C(C(=O)OC)C(c3cccs3)N12 (centres undefined)	i
O=C(NC(=S)Nc1cccc(-c2ccc(CO)o2)c1)c1cccs1	i
Cc1sc2ncnc(N3CCC(C(=O)N(C)CC(=O)Nc4ccccc4Cl)CC3)c2c1C	i
COc1ccc2c(c1)OC/C(=C/c1cccs1)C2=O	i
CC(NCC(O)COCc1cccs1)C1CC2CCC1C2 (centres undefined)	i

These rows are one share of the data; most or all hits stand in other tables.
